Screening results (PubChem BioAssay)
Cruzain inh noDet: cruzain (T. cruzi) inhibition without detergent. 200,000 compounds, 2.3% hits. AID 1476. purified cruzain, Z-FR-AMC fluorescence, no detergent. Potency, µM, for the others: max response, negative = inhibition, actives largely listed as inhibitors;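 further: plate controls were enzyme without inhibitor for no effect and buffer without enzyme for full effect; nearly all actives have a fitted effect of over 40% in size; top concentration of the series not given in the record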
Target sequence (P25779 123-467 limits assumed): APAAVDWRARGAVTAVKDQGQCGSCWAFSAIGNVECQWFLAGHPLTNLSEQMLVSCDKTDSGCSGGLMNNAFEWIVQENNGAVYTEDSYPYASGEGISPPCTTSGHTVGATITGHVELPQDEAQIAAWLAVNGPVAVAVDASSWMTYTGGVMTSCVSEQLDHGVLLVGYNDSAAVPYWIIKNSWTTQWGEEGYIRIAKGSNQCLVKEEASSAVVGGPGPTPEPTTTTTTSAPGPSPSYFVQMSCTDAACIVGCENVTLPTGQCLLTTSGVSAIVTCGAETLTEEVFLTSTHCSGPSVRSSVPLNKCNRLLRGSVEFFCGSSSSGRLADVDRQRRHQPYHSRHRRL
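Purified cruzain at 1.5 nM, pre-incubated 15 min with compound at room temperature in 100 mM sodium acetate pH 5.5, 5 mM DTT, 0.00005% Triton X-100. Reaction started with 2 uM Z-FR-AMC; AMC fluorescence increase over 60 s gives rate.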
NS1 function inh: blocks influenza NS1 protein function; S. cerevisiae slowed by influenza A NS1, growth recovery by OD600; Potency, µM (titrated, usually from 46.1 µM), for the others: at the top dose activity, positive = more growth; 270,000 compounds, 0.4% hits; active means well fitted rising curve with a large enough effect; inconclusive means small, poorly fitted or top-dose-only effect; inactive means no such curve, though single readings can be large or run the other way; further: nearly all actives have a fitted effect of over 50% in size
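A cell-based growth assay was used: compounds that relieve NS1-induced slow growth of budding yeast raise OD600. Assay medium was yeast nitrogen base with ammonium sulphate and -URA supplement, pH 6.0, with 2% galactose.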
Cruzain Triton: cruzain (T. cruzi) inhibition with detergent | 200,000 compounds, 0.43% hits | P25779 | Potency, µM, for inactives: max response, negative = inhibition, most hits filed as inhibitors | purified cruzain, Z-FR-AMC fluorescence, 0.01% Triton;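 further: plate controls were neutral wells for no effect and buffer without enzyme for full effect; nearly all actives have a fitted effect of over 40% in size; top concentration of the series not given in the record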
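Cruzain (1.5 nM) preincubated 15 min at RT with compound in 100 mM sodium acetate pH 5.5, 5 mM DTT, 0.01% Triton X-100. Reaction started with 2 uM Z-FR-AMC; AMC fluorescence (ex 360/em 450 nm) change over 60 s gave rate.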
An asterisk follows results filed as active; u = inconclusive; x = not tested or not shown; & = joins results of further samples. Unless noted, the call rests on the fitted dose curve; in most records, active means well fitted curve in the direction sought with a large enough effect; inconclusive means small, poorly fitted or top-dose-only effect, or another doubt; inactive means no such curve, though single readings can be large; an effect the other way counts as inactive or inconclusive. Potency means the concentration at half of the fitted maximal effect.

SMILES | Cruzain inh noDet | NS1 function inh | Cruzain Triton
C=C/C(=C/C(=O)C[C@H](C)C[C@@H](C)CC[C@H](O)[C@H](C)C(=O)C[C@@H](O)[C@H](C)[C@@H](C)OC(=O)C[C@@H](O)C1=C(C)C(=O)OC1=O)CC | u | x | -2.1%
C[Si](C)(C)Cl | 7% | x | 3.6%
Nc1cccc(N)c1 | u | x | 11µM*
O=C1OC(CO)C(O)C(O)C1O (stereo not drawn) | -6% | x | 2.5%
CC(C)C1C(=O)N2CCCC2[C@]2(O)O[C@@](NC(=O)[C@@H]3C=C4c5cccc6[nH]cc(c56)C[C@H]4N(C)C3)(C(C)C)C(=O)N12 (stereo partly drawn) | 28% | x | 0.3%
C/C(=C\C[Si](C)(C)C)CC[C@H](O)C1=CCCCC1=O | u | x | 1.2%
CCCCC/C=C\C/C=C\C/C=C\C/C=C\CCCC(=O)Nc1ccc(O)cc1C | 7% | x | 0.0%
CCC(C)C1/C=C\CCCC(=O)N1Cc1ccc(C)cc1 (stereo not drawn) | 5% | x | -0.8%
CCCC[C@@H]1C[C@H]1C(NC(=O)Cc1ccccc1)c1ccc(Cl)cc1 (stereo partly drawn) | 1% | x | -3.3%
CCOc1cccc2oc(-c3ccccc3Cl)cc(=O)c12 | 1% | x | -0.4%
O=c1cc(-c2ccccc2O)oc2c1ccc1ccccc12 | -3% | x | 0.5%
COC(=O)c1ccc(C(NC(=O)OCc2ccccc2)/C(C)=C/[C@@H](C)C(=O)NCc2cc(C)on2)cc1 (stereo partly drawn) | u | x | -1.7%
O=S(=O)(CCc1ccccc1)c1nnnn1-c1ccc(F)cc1Br | 1% | x | -2.3%
CNC(=O)C1(CC(C)C)C=CCN1C(=O)c1ccccc1 (stereo not drawn) | -4% | x | 1.3%
CCCC[C@H]1C[C@@H]1[C@@H]1N(P(=O)(c2ccccc2)c2ccccc2)[C@](CO)(c2ccccc2)CC12CC2 | -12% | x | -5.6%
CC(C)C[C@H]1COC(c2ccc(Br)cc2)=N1 | 4% | x | -2.7%
NCCC[C@@H](CC(=O)N[C@@H]1CCNC[C@H]1C(=O)N[C@H](CC(=O)N[C@@H](CCC(=O)O)CC(=O)O)Cc1c[nH]c2ccccc12)NC(=O)C[C@H](CO)NC(=O)[C@@H]1CCCC[C@H]1N | 10% | x | 2.6%
CC(C)[C@@H](CC(=O)N[C@@H]1CCNC[C@H]1C(=O)N[C@H](CC(=O)N[C@@H](CCC(=O)O)CC(=O)O)Cc1ccccc1)NC(=O)C[C@H](CO)NC(=O)[C@@H]1CNCC[C@H]1N | 17% | x | 7.6%
CC(C)[C@@H](CC(=O)N[C@@H]1CCNC[C@H]1C(=O)N[C@H](CC(=O)N[C@@H](CCC(=O)O)CC(=O)O)Cc1c[nH]c2ccccc12)NC(=O)C[C@H](Cc1c[nH]c2ccccc12)NC(=O)[C@@H]1CNCC[C@H]1N | 1% | x | 1.8%
CC[C@H]1C2=C3C(CC[C@H]4C(OCc5ccc(F)cc5C(F)(F)F)OC[C@](C)([C@@H]34)N(C(=O)OC(C)(C)C)C2)C2COC(=O)OCC21 (stereo partly drawn) | u | x | -7.9%
O=C(O)[C@@H](O)[C@@H](O)[C@@H](O[C@H]1O[C@@H](CO)[C@@H](O)[C@@H](O)[C@@H]1O)[C@@H](O)CO | -1% | x | -3.6%
NCCC[C@@H](CC(=O)N[C@@H]1CCCC[C@H]1C(=O)N[C@H](CC(=O)N[C@@H](CCC(=O)O)CC(=O)O)Cc1c[nH]c2ccccc12)NC(=O)C[C@H](Cc1ccccc1)NC(=O)[C@@H]1CCCC[C@H]1N | u | x | -2.2%
CCCn1c(-c2ccc(F)cc2)nc2c(NCCCN3CCCCC3C)nc(C)nc21 (stereo not drawn) | 0% | x | 1.7%
COc1cccc([C@@H]2Oc3ccc(OC)cc3C[C@H]2OC(=O)NS(=O)(=O)c2ccc(F)cc2)c1 | -3% | x | -1.2%
CCCCC/C=C\C/C=C\C/C=C\C/C=C\CCCCCC(=O)NCCc1ccc(O)c(O)c1 | -12% | x | 7.4%
CCCCC/C=C\C/C=C\C/C=C\CCCCCCC(=O)O[C@H](COCCCCCCCCCCCCCCCC)COP(=O)([O-])OCC[N+](C)(C)C | 21% | x | -4.7%
COC(=O)c1ccc(C(NC(=O)OCc2ccccc2)/C(=C/[C@@H](C)C(=O)NCCF)c2cccnc2)cc1 (stereo partly drawn) | u | x | 2.8%
Cc1cccc(C)c1O | -4% | x | -1.6%
COc1cc2nc3c(c([Si](C)(C)C(C)(C)C)c2cc1OC)Cn1c-3cccc1=O | -2% | x | 1.4%
O=[N+]([O-])c1ccc(CCO)cc1 | 0% | x | -0.4%
Cn1c(-c2nc(-c3ccccc3)cs2)nc2ccccc21 | 12% | x | -1.0%
CCCCCCN(C(=O)CCCCCN1C(=O)NC(c2ccccc2-c2ccccc2)C(C(=O)OCc2ccccc2)=C1C)C(C(=O)NCCCC)c1ccc(OCC(=O)OC)c(C(=O)OC)c1 (stereo not drawn) | 20% | x | -0.1%
Nc1ccccc1C(=O)O | -1% | x | 0.3%
CC(=O)N[C@H](CC(C)C)C(=O)O | -4% | x | 3.4%
CCC1=C2CC[C@H]3C(=O)NC(=O)[C@H]3[C@H]2[C@@]2(C)C(=NCCOC)OC(=O)N2C1=O | -5% | x | 0.4%
CCNC(=O)[C@H](C)/C=C/C(NC(=O)OCc1ccccc1)c1ccc(C(=O)OC)cc1 (stereo partly drawn) | -1% | x | -1.3%
C=C(CC1([C@@H](NP(=O)(c2ccccc2)c2ccccc2)[C@H]2C[C@@H]2CCN(C(=O)OCC)S(=O)(=O)c2ccc(C)cc2)CC1)c1ccccc1 | -28% | x | -3.0%
CCCC/C=C/[C@@H](NP(=O)(c1ccccc1)c1ccccc1)c1ccccc1OC | 6% | x | -6.7%
COC1C=CO[C@@]2(C)Oc3c(C)c(O)c4c(O)c(c5c(nc6cc(C)ccn65)c4c3C2=O)NC(=O)/C(C)=C\C=CC(C)C(O)[C@@H](C)C(O)C(C)[C@@H](OC(C)=O)C1C (stereo partly drawn) | 24% | x | -5.5%
CC(=O)OCC1OC(Oc2cc(OC(C)=O)c3c(=O)cc(-c4ccc(OC(C)=O)c(OC(C)=O)c4)oc3c2)C(OC(C)=O)C(OC(C)=O)C1OC(C)=O (stereo not drawn) | u | x | 0.6%
COc1cccc2c1C(=O)CC(c1ccccc1)O2 (stereo not drawn) | 3% | x | -1.7%
[O][C@H]1[C@@H](O)[C@@H](CO)O[C@@H](O[C@@H]2[C@@H]3OC[C@H]2O[C@H](O[C@@H]2[C@@H](O)[C@H](C[C@@H]4[C@@H]5OC[C@H]4O[CH][C@@H]5O)O[C@H](CO)[C@@H]2OS(=O)(=O)O)[C@@H]3OS(=O)(=O)O)[C@@H]1O | -1% | x | -0.7%
NCCC[C@@H](CC(=O)N[C@@H]1CCNC[C@H]1C(=O)N[C@H](CC(=O)N[C@@H](CCC(=O)O)CC(=O)O)Cc1ccccc1)NC(=O)C[C@H](CO)NC(=O)[C@@H]1CNCC[C@H]1N | 6% | x | 4.8%
COc1ccc2c(c1)O[C@H](c1ccc3c(c1)OCO3)[C@@H](OC(=O)NS(=O)(=O)c1ccc(C)cc1)C2=O | -3% | x | 2.9%
COc1cccc([C@@H]2Oc3ccc(OC)cc3C(=O)[C@H]2OC(=O)NS(=O)(=O)c2ccc(C)cc2)c1 | -1% | x | -3.8%
C=C(C)CCl | 6% | x | 1.4%
CC(=O)N(CC(O)CN(C(C)=O)c1c(I)c(C(=O)NC[C@@H](O)CO)c(I)c(C(=O)NC[C@@H](O)CO)c1I)c1c(I)c(C(=O)NC[C@@H](O)CO)c(I)c(C(=O)NC[C@@H](O)CO)c1I | -6% | x | 1.9%
Brc1ccc(C2=NCCC(c3ccccc3)O2)cc1 (stereo not drawn) | -17% | x | 0.4%
Cc1ccc(CNC(=O)C2(CC(C)C)C=CCN2C(=O)c2ccccc2)o1 (stereo not drawn) | u | x | -3.7%
OC1c2ccccc2-c2nc3ccccc3cc21 (stereo not drawn) | -1% | x | -1.4%
CC(C)c1cccc2cc3c(nc12)-c1cccc(=O)n1C3 | u | x | -6.3%
CCCC(=O)Cl | -5% | x | 2.1%
CC(C)C[C@@H](CC(=O)N[C@@H](CCC(=O)O)CC(=O)O)NC(=O)[C@@H]1CNCC[C@H]1NC(=O)C[C@@H](NC(=O)C[C@H](Cc1c[nH]c2ccccc12)NC(=O)[C@@H]1CCCC[C@H]1N)C(C)C | 7% | x | -2.8%
Nc1ccc(S(=O)(=O)O)cc1 | -10% | x | -0.4%
CCCCC1=CC2=CC(=O)C(C)(OC(=O)c3ccco3)C(=O)C2=CO1 (stereo not drawn) | 2% | x | 0.7%
COC(C)(C)C | -2% | x | 4.6%
COc1ccccc1-c1[se]c2ccccc2c1I | u | x | -1.4%
C=Cc1cccc(C)c1 | -8% | x | 2.5%
COC1=C(OC)C(=O)C(C/C=C(\C)CC/C=C(\C)CC/C=C(\C)CC/C=C(\C)CC/C=C(\C)CC/C=C(\C)CC/C=C(\C)CC/C=C(\C)CC/C=C(\C)CCC=C(C)C)=C(C)C1=O | -3% | x | -1.0%
CC(C)(C)OO | -2%&-10% | x | -3.0%&-4.4%

Pulled by compound from the entries so far, 5 records:
SMILES | Cruzain inh noDet | NS1 function inh | Cruzain Triton
Brc1ccc(C2=NCCC(c3ccccc3)O2)cc1 (stereo not drawn) | -17% | x | 0.4%
CC(=O)N(CC(O)CN(C(C)=O)c1c(I)c(C(=O)NC[C@@H](O)CO)c(I)c(C(=O)NC[C@@H](O)CO)c1I)c1c(I)c(C(=O)NC[C@@H](O)CO)c(I)c(C(=O)NC[C@@H](O)CO)c1I | -6% | x | 1.9%
CC(C)C[C@@H](CC(=O)N[C@@H](CCC(=O)O)CC(=O)O)NC(=O)[C@@H]1CNCC[C@H]1NC(=O)C[C@@H](NC(=O)C[C@H](Cc1c[nH]c2ccccc12)NC(=O)[C@@H]1CCCC[C@H]1N)C(C)C | 7% | x | -2.8%
Cc1ccc(CNC(=O)C2(CC(C)C)C=CCN2C(=O)c2ccccc2)o1 (stereo not drawn) | u | x | -3.7%
CCCC(=O)Cl | -5% | x | 2.1%

(more compounds)
SMILES | Cruzain inh noDet | NS1 function inh | Cruzain Triton
CC(C)(CS)C(=O)N1CCC[C@H]1C(=O)O | 0% | x | 0.0%
CCCCCCCCC/C=C/CC1CC(=O)OC1=O (stereo not drawn) | u | x | -4.3%
CC(C)[C@@H](CC(=O)N[C@@H]1CCNC[C@H]1C(=O)N[C@H](CC(=O)N[C@@H](CCC(=O)O)CC(=O)O)Cc1c[nH]c2ccccc12)NC(=O)C[C@H](Cc1ccccc1)NC(=O)[C@@H]1CNCC[C@H]1N | 0% | x | 5.0%
CNC[C@H](O)c1ccc(O)c(OC)c1 | 11% | x | -0.7%
c1ccc(-c2nc(-c3cccc4ccccc34)c(NC3CCCCC3)o2)cc1 | u | x | 1.4%
[O]=[Cr](=[O])([OH])[O][Cr](=[O])(=[O])[OH] | -9%&5%&-11% | x | -9.0%&-3.2%&-0.5%
COc1cc(OC)cc(-c2sc3ccccc3c(=O)c2I)c1 | -10% | x | -1.3%
COc1cccc([C@@H]2Oc3ccc(OC)cc3C(=O)[C@H]2OC(=O)NC2CCCC2)c1 | 0% | x | -1.0%
COCCNc1nc(C)nc2c1nc(-c1ccccc1)n2CCN1CCCC1 | -3% | x | -3.2%
CCCCCCCCCCCCCC(=O)O[C@@H]1[C@@H](C)[C@@]2(O)[C@@H](C=C(CO)C[C@]3(O)C(=O)C(C)=C[C@@H]23)[C@@H]2C(C)(C)[C@]12OC(C)=O | 24% | x | -3.5%
COC(=O)[C@@H]1C[C@H]1[C@@H](NC(=O)c1ccc(Br)cc1)c1ccccc1 | -2% | x | -8.6%
CC[C@](C)(CN(C)C)OC(=O)c1ccccc1 | -5% | x | -4.9%
CCC#CCOCC(=O)Nc1ccccc1 | -4% | x | -0.6%
Nc1nc(CC(=O)O)cs1 | -9% | x | 7.5%
CCNc1ccccc1 | 2% | x | 0.1%
OC[P+](CO)(CO)CO | -5% | x | -6.6%
CC/C=C\C/C=C\C/C=C\C/C=C\C/C=C\CCCC(=O)NCCc1ccc(O)c(O)c1 | -9% | x | 1.7%
S=C(Nc1ccccc1)Nc1ccccc1C#Cc1ccccc1 | -18% | x | -0.2%
C/C(=C(/CCO)SSC[C@@H]1CCCO1)N(C=O)Cc1cnc(C)nc1N | -2% | x | -4.9%
Brc1cc(Oc2cc(Br)c(Br)c(Br)c2Br)c(Br)c(Br)c1Br | u | x | 4.7%
c1ccc(CO[C@H]2NCCN2Cc2ccccc2)cc1 | -3% | -8% | 3.2%
O=C(O)c1ccccc1-c1ccccc1C(=O)Nc1ccc2c(c1)Cc1ccccc1-2 | -2% | 5% | -3.2%

The list is partial; the hit share may differ from the screen's.
